# Screening data deposited in PubChem by National Center for Advancing Translational Sciences (NCATS).
# AID923 = qHTS Assay for Allosteric/Competitive Inhibitors of Caspase-1: Spectroscopic Profiling in AFC Spectral Region; Potency, µM (doses to about 57.5 µM), inactives show at the top dose fluorescence increase, most hits filed as activators; AID 923, 2007; compound fluorescence, AFC spectral region (405/520 nm); almost no hit is shown here; 1.1% of 75,000 active; active means well fitted activation curve with a large enough effect; inconclusive means small, poorly fitted or top-dose-only effect;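 further: potency means the concentration at half of the fitted maximal effect; 0% is about no effect; scaled to a free AFC standard on each plate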
#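 Compound autofluorescence profiled at 405 nm ex/520 nm em during kinetic caspase 1 run (50 nM enzyme, 5 uM Ac-WEHD-AFC, HEPES pH 7.5, 10 mM DTT). Titration up to 57 uM; baseline from regression intercept, normalized to AFC standard curve.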
# A647 autofl = compound autofluorescence in A647 spectral region | 59,000 tested, under 10 active | max dye-equivalent concentration, M | AID 592 | Compound fluorescence, A647 channel (570/671 nm), Tris buffer; active means above 1 µM dye equivalent; inconclusive means 0.1 to 1 µM; inactive means 0.1 µM or less;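 further: values scaled relative to a standard on each plate; highest value over a series up to 38 µM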
#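 Fluorescence read (570 nm ex, 671 nm em) after 15 min RT incubation of compounds in 100 mM Tris buffer, pH 8.0; values expressed as dye-equivalent concentration against a six-point A647 standard series on each plate.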
# Resorufin autofl = compound fluoresces in the resorufin spectral region | 0.04% of 59,000 active | max dye-equivalent concentration, M | Compound fluorescence, resorufin region 547/598 nm, buffer; stronger effect = higher value; active = above 10 nM dye equivalent; inconclusive = 1 to 10 nM; inactive = 1 nM or less; a few of its hits are not listed in these tables; further: highest value over a series up to 38 µM
#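 Tris 100 mM pH 8.0; compound added, 15 min RT; CCD imager read, ex 547 nm/em 598 nm; signal normalized to resorufin standard curve (six concentrations per plate) as dye-equivalent concentration.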
# A488 fluor = A488 region autofluorescence | AID 591 | 0.1% of 59,000 active | compound autofluorescence, A488 spectral region, dye equivalency; stronger effect = higher value | max dye equivalency, M; active = above 10 nM dye equivalent; inconclusive = 1 to 10 nM; inactive = 1 nM or less; about half of its hits are not listed in these tables;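 further: highest value over a series up to 38 µM; compound alone in buffer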
#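 Read-out: relative fluorescence at 480/540 nm, expressed as Alexa 488 dye-equivalent concentration from a six-point A488 standard included per plate. Conditions: 100 mM Tris, pH 8.0; 15 min incubation, room temperature.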
# TSHR agonist = agonists of human thyroid stimulating hormone receptor | P16473 | HEK293-CNG-TSHR cells (CNG channel as cAMP sensor), membrane potential dye, cAMP | Potency, µM (highest dose often 57.1 µM), inactives show at the highest dose activation, most hits filed as activators | 0.48% of 73,000 active | AID 926; active = well fitted activation curve of enough size with the parental cells flat; inconclusive = any curve in the parental cells; inactive = parental cells flat and receptor cells flat or falling; further: potency means the concentration at half of the fitted maximal effect; % of control where 0% means no effect; weak receptor curves with flat parental cells got no call and are not listed
# Target sequence (P16473 whole entry, looked up): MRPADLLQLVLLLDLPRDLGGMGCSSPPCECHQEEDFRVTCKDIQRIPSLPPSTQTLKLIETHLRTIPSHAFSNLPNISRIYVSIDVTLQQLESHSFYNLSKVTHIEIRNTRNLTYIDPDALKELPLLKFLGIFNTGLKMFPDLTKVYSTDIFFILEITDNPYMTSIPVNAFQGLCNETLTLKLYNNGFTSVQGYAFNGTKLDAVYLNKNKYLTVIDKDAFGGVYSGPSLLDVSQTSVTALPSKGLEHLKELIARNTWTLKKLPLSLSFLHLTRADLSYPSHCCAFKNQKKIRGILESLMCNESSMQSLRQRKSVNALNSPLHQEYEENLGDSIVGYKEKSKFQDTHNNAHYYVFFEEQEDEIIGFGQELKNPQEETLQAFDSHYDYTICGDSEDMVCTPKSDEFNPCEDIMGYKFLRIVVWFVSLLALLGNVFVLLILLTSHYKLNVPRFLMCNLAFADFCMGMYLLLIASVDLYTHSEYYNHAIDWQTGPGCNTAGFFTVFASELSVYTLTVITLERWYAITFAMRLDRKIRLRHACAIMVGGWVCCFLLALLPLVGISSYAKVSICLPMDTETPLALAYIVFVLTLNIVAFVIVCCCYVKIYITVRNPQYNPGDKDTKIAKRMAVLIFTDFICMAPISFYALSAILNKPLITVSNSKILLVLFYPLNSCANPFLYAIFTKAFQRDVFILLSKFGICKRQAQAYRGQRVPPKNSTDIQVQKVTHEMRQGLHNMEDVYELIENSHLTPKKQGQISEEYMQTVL
#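 cAMP rise detected as CNG-channel membrane depolarization by fluorescent dye (emission 590 nm), 30 min after compound, following 60 min dye loading containing 100 uM RO 20-1724 at room temperature. Cells: TSHR/CNG HEK 293, with parental CNG HEK 293 as control.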
# Active calls of the source: *; i = inactive; u = inconclusive; x = no result given; [ ] = another dose, or the depositor's remark. The list is partial. The share of hits here may be higher or lower than overall.
# A first look (6 entries):
SMILES,AID923,A647 autofl,Resorufin autofl,A488 fluor,TSHR agonist
COC(=O)c1ccc(NC(=O)COc2ccccc2OC)cc1,2.1%,x,x,x,17%
O=C(OCC(=O)c1ccccc1Br)c1ccccn1,-2.0%,7.5e-09,i,i,0%
N[C@@H](CSCc1ccc(I)cc1)C(=O)O,4.5%[11.5 µM],4.1e-09,i,i,u
Fc1cccc(Cl)c1CSc1nnnn1-c1ccc2c(c1)OCO2,-0.3%,x,x,x,u
CCn1c(=S)sc2c(=O)[nH]c(C)nc21,1.2%,1e-09,i,i,20%
Cc1cnc(C(=O)OCC(=O)c2csc(N3CCCCC3)n2)cn1,2.7%,2e-09,i,i,-5%

# The whole of this part, from the first entry:
SMILES,AID923,A647 autofl,Resorufin autofl,A488 fluor,TSHR agonist
COC(=O)c1ccc(NC(=O)COc2ccccc2OC)cc1,2.1%,x,x,x,17%
O=C(OCC(=O)c1ccccc1Br)c1ccccn1,-2.0%,7.5e-09,i,i,0%
N[C@@H](CSCc1ccc(I)cc1)C(=O)O,4.5%[11.5 µM],4.1e-09,i,i,u
Fc1cccc(Cl)c1CSc1nnnn1-c1ccc2c(c1)OCO2,-0.3%,x,x,x,u
CCn1c(=S)sc2c(=O)[nH]c(C)nc21,1.2%,1e-09,i,i,20%
Cc1cnc(C(=O)OCC(=O)c2csc(N3CCCCC3)n2)cn1,2.7%,2e-09,i,i,-5%
CCn1c(Cc2ccccc2)nnc1SCC(=O)Nc1ccc2c(c1)OCO2,-1.0%,3.6e-08,i,i,3%[11.4 µM]
O=C(NCc1ccccn1)C1CC(=O)N(C2CCCC2)C1 (centres undefined),9.6%,x,x,x,2%
CNc1nc(N2CCc3ccccc32)ncc1F,-3.0%,3.5e-08,i,i,10%
Cc1ccc(-c2noc(CCC(=O)Nc3cc(C)ccn3)n2)cc1,-0.4%,7.1e-09,i,i,6%
Cn1c(=O)c2c(nc(SCCOc3ccc4ccc(=O)oc4c3)n2C)n(C)c1=O,1.8%,x,x,x,0%
Cn1c(CN2CCOCC2)nnc1SCC(=O)Nc1nccs1,0.6%,1.3e-09,i,i,1%
COc1ccc(CNC2CC(=O)N(C)C2=O)cc1 (centres undefined),3.5%,x,x,x,u
CCOC(=O)C1CCN(C(=O)CN2C(=O)C(CC)Oc3ccccc32)CC1 (centres undefined),-3.1%,3.3e-08,i,i,22%
C[N+]1(C)CCC[C@H]1C(=O)[O-],-1.1%[25.7 µM],2.1e-09,i,i,x
CCCCn1c(SCC(=O)NCc2ccco2)nnc1-c1ccco1,1.7%,4.7e-09,i,i,u
Cc1ccc(NC(=O)CN(c2ccccc2F)S(C)(=O)=O)cc1,0.0%,3.7e-09,i,i,6%
O=C(CCN1C(=O)c2ccccc2C1=O)Nc1ccccn1,-0.6%,3.7e-09,i,i,0%
FC(F)(F)c1ccccc1-c1nccc(NCCN2CCOCC2)n1,-0.5%,1e-09,i,i,2%
Fc1ccc(Nc2ncnc3ccc(-c4ccoc4)cc23)cc1,1.2%,1e-09,i,i,u
CCOc1ccccc1N1CCN(C(=O)c2cccc(-c3ccc(O)cc3)c2)CC1,6.2%,1e-09,i,i,23%
CC(NC(=O)Nc1ccccc1)C(c1cccs1)N1CCOCC1 (centres undefined),1.4%,x,x,x,22%
Cn1c(=O)[nH]c(=O)c2c1nc(CN1CCOCC1)n2Cc1ccccc1,0.2%,1.4e-09,i,i,1%
CCCn1nnnc1NCc1ccccc1OCc1cccs1,2.1%,2.2e-09,i,i,x
O=C(NCc1ccco1)c1ccc2c(=O)n(Cc3ccco3)c(SCC(=O)N3CCCC3)nc2c1,1.1%,1e-08,i,i,6%
COc1ccc(OC)c(C2=NOC(C(=O)NCC3CCCO3)C2)c1 (centres undefined),-0.8%,1.2e-08,i,i,2%
COCCCNC(=O)Nc1ccc(F)cc1F,-1.2%,1e-09,i,i,-4%
CCn1cc(C(=O)NCCC2=CCCCC2)c(=O)c2cc(S(=O)(=O)N(C)C)ccc21,-0.9%,x,x,x,-2%
COCCn1c(=O)cnc2cnc(Nc3ccccc3)nc21,1.0%,7.1e-09,i,i,14%
CS(=O)(=O)N1CCC2(CCCN(c3ccccn3)C2)CC1,1.0%,1.9e-08,i,i,u
COCc1cc(=O)n2[nH]c(C)nc2n1,-0.3%,2e-08,i,i,1%
O=C(Nc1ccncc1)c1c(F)cccc1F,0.6%,2.4e-09,i,i,-15%
CCCCn1c(CN2CCN(C)CC2)nc2ccccc21,-0.2%,1e-09,i,i,26%
COC(=O)c1ccc(NS(=O)(=O)c2cc(C)ccc2OC)cc1,-1.1%,2.9e-09,i,i,3%
CCCCc1ccc(-c2nc(-c3ccncc3)no2)cc1,1.5%,x,x,x,18%[11.4 µM]
COc1ccc(C2C3=C(CC(C)(C)CC3=O)Oc3ncn4nc(-c5cccnc5)nc4c32)cc1 (centres undefined),-2.0%,1e-09,i,i,6%
CCCc1ccc2c(N)c(C#N)sc2n1,3.9%,x,x,x,6%
CN1c2cc3c(cc2N=C(c2ccc(C(=O)O)cc2)c2ccccc21)C(C)(C)CCC3(C)C,-1.6%,x,x,x,u
CS(=O)(=O)Nc1ccccc1C(=O)O,1.6%,x,x,x,7%
COc1cccc(-c2nccc(-n3ccnc3)n2)c1,-0.6%,1e-09,i,i,4%
Cc1c(C(=O)NCc2cccs2)oc2ccc(S(=O)(=O)N3CCOCC3)cc12,0.4%,3e-08,i,i,1%[11.4 µM]
COc1ccc(CNC(=O)C2CCN(S(=O)(=O)c3cccc4cccnc34)CC2)cc1,-1.2%,x,x,x,-8%
COc1cccc(Nc2nnc(SCC(=O)N3CC(C)OC(C)C3)s2)c1 (centres undefined),0.7%,1e-09,i,i,-2%
c1ccc2nc(N3CCOCC3)c(N3CCOCC3)nc2c1,0.7%,5.4e-08,i,i,-2%
Fc1ccc(CN2CCCCCC2)c(F)c1,0.2%,x,x,x,7%[11.4 µM]
COC(=O)c1cc(Cc2ccc(N)c(C(=O)OC)c2)ccc1N,1.8%,x,x,x,u
COc1ccc(S(=O)(=O)N2CCCC2C(=O)Nc2ccc(C(C)=O)cc2)cc1 (centres undefined),-1.8%,x,x,x,-3%
O=C(OCc1cc(=O)n2c(n1)sc1ccccc12)c1ccc2c(=O)n3c(nc2c1)CCC3,-0.5%,3.7e-08,i,i,0%
Cn1c(C(=O)N2CCC(C(=O)N3CCN(Cc4ccc5c(c4)OCO5)CC3)CC2)cc2sccc21,0.8%,x,x,x,-5%
CCOC(=O)C(NC(=O)CC)(Nc1ccc(S(=O)(=O)Nc2cc(C)on2)cc1)C(F)(F)F (centres undefined),-0.4%,2.9e-08,i,i,13%
CCOC(=O)CSc1nnc2n(C3CCCCC3)c(=O)c3c4c(sc3n12)CCCC4,x,2.4e-09,i,i,x
Cn1c(C(=O)Nc2ccc3c(c2)OCO3)cc2c(=O)n(C)c3ccccc3c21,1.3%,x,x,x,8%
CCOC(=O)N1CCN(C(=O)c2cc(-n3cnnc3)ccc2Cl)CC1,-1.1%,1e-09,i,i,-2%
O=c1nc(N2CCCCC2)nc2n1CCO2,0.3%,2.8e-08,i,i,2%
COc1ccccc1C1NC(=O)NC(C)=C1C(=O)Nc1cccc(C)c1C (centres undefined),1.4%,x,x,x,12%
O=C(c1ccco1)N1CCN(C(c2cccs2)c2nnnn2C2CCCCC2)CC1 (centres undefined),-0.7%,1e-09,i,i,7%
COc1cccc2c1C(=O)c1c(O)c3c(c(O)c1C2=O)C[C@](O)(C(=O)CO)C[C@H]3O[C@@H]1C[C@H](N)[C@H](O)[C@H](C)O1,-1.2%[25.7 µM],2.1e-08,7.2e-08M*,1.3e-08M*,-1%[25.6 µM]
O=C(c1ccccc1)c1c[nH]c2cc3c(cc2c1=O)OCCO3,0.8%,8.7e-09,i,i,1%
CN1CCN(c2ncnc3c2sc2nc(N4CCCC4)c4c(c23)CC(C)(C)OC4)CC1,0.0%,x,x,x,7%
Cc1c(-n2cc(C(=O)c3ccccc3O)cc(C#N)c2=O)c(=O)n(-c2ccccc2)n1C,1.9%,2.3e-08,i,u,-4%

# As entered above:
# In TSHR agonist, `c1ccc2nc(N3CCOCC3)c(N3CCOCC3)nc2c1` is entered as -2%
# In TSHR agonist, `Cn1c(C(=O)N2CCC(C(=O)N3CCN(Cc4ccc5c(c4)OCO5)CC3)CC2)cc2sccc21` is entered as -5%
# In A647 autofl, `COc1cccc2c1C(=O)c1c(O)c3c(c(O)c1C2=O)C[C@](O)(C(=O)CO)C[C@H]3O[C@@H]1C[C@H](N)[C@H](O)[C@H](C)O1` is entered as 2.1e-08

# The list goes on:
SMILES,AID923,A647 autofl,Resorufin autofl,A488 fluor,TSHR agonist
CN1C(=O)CSc2ccc(NC(=O)NCc3ccco3)cc21,-1.4%,2.1e-08,i,i,-5%
Cc1cc(C)n(CC(=O)NCc2cc(-c3nn(C)c(=O)c4ccccc34)ccc2C)n1,0.6%,4e-08,i,i,19%
Cc1cccc(C)c1NC1=NC(C)(C)N=C(N)N1,1.6%,5.6e-09,i,i,-17%
CC(C)Cn1c(N)c(C(=O)COC(=O)c2ccncc2)c(=O)n(C)c1=O,1.5%,2.2e-09,i,i,0%
Cc1nc(NCc2ccccc2)c2nc(-c3ccccc3)n(CC3CCN(C)CC3)c2n1,-0.6%,x,x,x,18%
CCCc1nnc2n1N=C(c1ccc(-c3cc(Cl)ccc3Cl)o1)CS2,-1.3%,4.6e-08,i,i,-9%
C=CCNc1ncnc2c1[nH]c1ccc(C)cc12,-3.1%,4.6e-09,i,i,17%
COc1ccc(-n2c(COc3ccccc3)nnc2SCC(N)=O)cc1,-0.5%,2.9e-08,i,i,9%
Cc1ccc(S(=O)(=O)Cn2nnnc2CN2CCCC3(CCCCC3)C2)cc1,1.5%,1e-09,i,i,10%
CCN1CCN(c2cc(=O)n(-c3cc(Cl)ccc3C)c(=O)[nH]2)CC1,1.3%,1e-09,i,i,23%
CC(=O)c1c(C)[nH]c(C(=O)NCCC2=CCCCC2)c1C,-0.3%,8.8e-09,i,i,12%
COC(=O)C(C(=O)Nc1ccc(OC)cc1)C1CCCCCC1 (centres undefined),-3.4%,3.2e-08,i,i,36%
c1ccc(OCc2nn3c(-c4ccncc4)nnc3s2)cc1,-0.3%,2e-08,i,i,24%
[N-]=[N+]=NC[C@@H]1O[C@@H](n2cnc3c(N)ncnc32)[C@@H]2O[C@@H]21,1.4%[11.5 µM],9.3e-09,i,i,-2%[11.4 µM]
O=C(CCNC(=O)c1ccc(Br)o1)NCc1ccccc1Cl,1.4%,1.6e-09,i,i,-6%
O=C(Nc1cccnc1)c1cccc(NC(=O)c2ccco2)c1,2.3%,x,x,x,2%
CCn1c(=O)c(C(=O)CN2CCCc3ccccc32)c(N)n(Cc2ccccc2)c1=O,1.2%,1e-09,i,i,-21%
Cc1nn(-c2ccccc2)c2[nH]c(C(F)(F)F)cc(=O)c12,-1.3%,1.8e-09,i,i,-27%
O=C(O)c1oc2ccccc2c1-n1cccc1,-1.7%,1e-09,i,i,15%
COc1cccc(Cn2c(Oc3cccc(C)c3)nc3c2c(=O)n(C)c(=O)n3C)c1,1.0%,3.1e-09,i,i,u
COc1ccccc1OCCOc1ccc(/C=N/n2cnnc2)cc1,0.5%,x,x,x,-1%
Cc1c(C(=O)N2CCc3ccccc3C2)sc2nc(-c3ccccc3)cn12,3.0%,5.8e-09,i,i,u
Oc1ccccc1CN1CCCN(Cc2ccccc2O)C1,0.0%,4.5e-08,i,i,3%
FC(F)(F)c1nnc2ccc(N3CCCCCC3)nn12,0.4%,3.5e-09,i,i,3%
CCOC(=O)C1CCCN(c2c(N3CCN(c4ccccn4)CC3)c(=O)c2=O)C1 (centres undefined),2.1%,x,x,x,1%
